# VACV mCherry inh: inhibitors of vaccinia virus infection (mCherry reporter signal) | Vaccinia virus mCherry reporter infection, fluorescence; about a quarter of the inactives have no number | Potency, µM (titrated, usually from 36.5 µM), inactives show top-dose activity change, negative = inhibition, most hits filed as inhibitors | hit rate 0.63% among 310,000; active = well fitted inhibition curve with a large enough effect; inconclusive = small, poorly fitted or top-dose-only effect; inactive = no such curve, though single readings can be large or run the other way; tested in A549 cells; also: nearly all actives have a fitted effect of over 35% in size; inactives centre near -10
# VACV Venus inh: vaccinia inhibition (Venus reporter). Vaccinia virus Venus reporter expression, fluorescence. Potency, µM (series often up to 36.5 µM), without a hit: top-dose activity change, negative = inhibition, actives largely listed as inhibitors. hit rate 0.46% among 330,000. AID 720580; active means well fitted inhibition curve with a large enough effect; inconclusive means small, poorly fitted or top-dose-only effect; inactive means no such curve, though single readings can be large or run the other way; tested in A549 cells; also: nearly all actives have a fitted effect of over 30% in size; inactives centre near -10
# An asterisk follows results filed as active; i = inactive; ? = inconclusive; / = no result given; & = joins results of further samples; [ ] = remark or other dose. % is scaled to controls: 0 for no effect and ±100 for the full control effect; potency is read from the fitted curve at half-maximal effect. No enrichment for hits. Share with any hit: about 0.88%.
canonical_smiles | VACV mCherry inh | VACV Venus inh
COc1ccc(-n2c(SCC(=O)Nc3nccs3)nc3c(c2=O)SCC3)cc1 | -4% | -11%
COc1ccccc1N1CCN(C(=S)Nc2cccc(C)c2)CC1 | -29% | -24%
O=C(c1cccc(Cl)c1)N1CCC(=O)N(C(CO)Cc2ccccc2)CC1 (configuration not stated) | i | -9%
CCCOc1ccc(C2C(=O)N(C3CCC(C)CC3)CC(=O)N2CCc2ccccc2)cc1OC (configuration not stated) | -13% | -15%
Cc1ccc(-c2nn3c(=O)cc(CN4CCN(C(=O)COc5ccc(C)c(C)c5)CC4)nc3s2)cc1 | ? | -28%
Cc1occc1C(=O)NC1CCCCCCC1 | i | -11%
CC1CCCCC1NC(=O)CN(C)S(=O)(=O)c1cccc2cccnc12 (configuration not stated) | -7% | -8%
COc1ccc(-c2ccnc(-c3ccncc3)n2)cc1 | -1% | -14%
COc1ccc(OC)c(NC(=O)Nc2ccc(O)c3ccccc23)c1 | -19%[7.34 µM] | -17%[7.34 µM]
CCOC(=O)C(=O)NNc1ccc(F)cc1 | -26% | -20%
COc1cc(CNc2ccc(S(N)(=O)=O)cc2)ccc1OCC(=O)NC1CCCCC1 | -7% | -17%
C#CCOc1ccc(CNC[C@H]2O[C@@H](n3ccc(N)nc3=O)[C@H](O)[C@@H]2O)cc1 | -17% | -20%

canonical_smiles | VACV mCherry inh | VACV Venus inh
O=c1[nH]nc(SC2CCCCC2)c(=O)[nH]1 | -12% | -7%
CCOc1ccc(S(=O)(=O)N2CCN(c3ncccn3)CC2)cc1 | -13% | -9%
CC(C)Cc1ccc(S(=O)(=O)Nc2ccc3[nH]c(=O)[nH]c3c2)cc1 | i | -21%
COc1cccc(CNC(=O)Nc2cn(CC(C)C)c(=O)c3ccccc23)c1 | 5% | -5%
Nc1ccc(S(=O)C(F)(F)F)cc1 (configuration not stated) | i | -4%
COC(=O)c1ccc(CNC(=O)COC(=O)c2cc(Cl)nc(Cl)c2)cc1 | i | -5%
Clc1ccc(OCc2nc(-c3ccc(-n4cccc4)cc3)no2)cc1 | -13% | -3%
COc1cccc(CN(C)C(=O)c2ccccc2SCC(=O)N2CCCC2)c1 | i | -10%
CC(=O)Nc1c(C(=O)Nc2cccc(C)c2)nnn1-c1ccc(C)cc1 | -22% | -22%
COc1ccc(-n2c(Cn3nc(C(F)(F)F)cc3C)n[nH]c2=S)cc1 | -19% | -18%
CC(C)=C1C2CCC1C1C(=O)N(c3nccs3)C(=O)C21 (configuration not stated) | -10% | -8%
CC(C)OC(=O)CSc1nnc(-c2cnccn2)n1-c1ccccc1 | / | -2%

canonical_smiles | VACV mCherry inh | VACV Venus inh
CN(C)c1ccc(NC(=O)CSc2nc(-c3ccco3)cc(C(F)(F)F)n2)cc1 | -3% | 0%
C=CCn1c(SCC(=O)c2ccc(OC)cc2)nnc1-c1ccc2c(c1)OCO2 | i | -1%
CN(C)CCCOC(=O)Cc1ccc(Cl)cc1 | / | 17%
COc1ccccc1N(CC(=O)NC1CCCC1)C(=O)CNC(=O)c1cccs1 | -14% | -3%
O=C(NNc1ccccc1[N+](=O)[O-])Nc1ccc(F)cc1F | -12% | -3%
N=c1n(Cc2ccccc2)c2ccccc2n1Cc1ccccc1 | -31% | ?
CCn1c(SCC(=O)OC)nc2sc3c(c2c1=O)CC(C)(C)OC3 | i | -2%
Cc1cccc(C)c1NC(=O)CN(C)C(C)C(=O)Nc1ccccc1-c1ccccc1 (configuration not stated) | -11% | -15%
Cc1cccc(NC(=O)c2cc(S(=O)(=O)N3CCC4(CC3)OCCO4)ccc2F)c1 | -4% | -1%
Cc1ccc2oc(=O)c3cnn(CC(=O)Nc4ccccc4N4CCN(C)CC4)c3c2c1 | -9% | -7%
CCn1cc([N+](=O)[O-])c(C(=O)Nc2nc(-c3ccc(C)c(C)c3)c(C)s2)n1 | -25% | ?
Cc1ncc([N+](=O)[O-])n1CC(=O)Nc1ccc(F)c(Cl)c1 | i | -9%

canonical_smiles | VACV mCherry inh | VACV Venus inh
Cn1cc(C(=O)N/N=C/c2ccc3c(c2)OCO3)c2ccccc21 | ? | -24%
CC1Cc2cc(/C(O)=C3/C(=O)C(=O)N(CCCN4CCOCC4)C3c3ccc(C(C)C)cc3)ccc2O1 (configuration not stated) | -1% | -12%
Cc1ccc2cccc(OCC(=O)Nc3cccc(S(=O)(=O)N4CCCC4)c3)c2n1 | -18% | -28%
CCOC(=O)C1(Cc2cccc(OC)c2)CCN(Cc2cccc3c2OCO3)CC1 | -15% | -3%
Cc1nc2c(c(-c3ccccc3)c1C#N)C(=O)c1ccccc1-2 | i | -8%
CCOC(=O)C1=C(C)NC(SCC(=O)OC)=C(C#N)C1c1ccc(C(=O)OC)cc1 (configuration not stated) | -13% | -22%
Cc1ccc2cc(NC(=O)c3ccccc3C)ccc2n1 | -11% | -27%
CC1(C(=O)NS(=O)(=O)c2ccc(Cl)cc2)CCN1C(=O)c1cccc(F)c1 (configuration not stated) | i | -3%
COc1ccc(-c2cc(C(F)(F)F)nc(SCC(=O)NCCc3ccccc3)n2)cc1 | -25% | -25%
CCOC(=O)/C(C#N)=c1/s/c(=C2\C=Cc3ccccc3N2CC)c(=O)n1CC | i | -3%
COc1ccccc1C(=O)N1C(CC(=O)Nc2ccccc2C)C(=O)NC2CCCCC21 (configuration not stated) | -21% | 2%
CC1(C(=O)Nc2ccc(Cl)c(C(F)(F)F)c2)Cc2c(-c3cccc(C(N)=O)c3)ccnc2O1 (configuration not stated) | -12% | -14%

canonical_smiles | VACV mCherry inh | VACV Venus inh
CCOC(=O)C1=CC[C@@H](c2cccc(C)c2)N(S(=O)(=O)c2ccc(C)cc2)[C@H]1C(=O)OCC | -13% | -15%
Cc1ccc(NC(=O)CN(C)S(=O)(=O)c2cccs2)cc1F | / | ?
Cc1ccc(-c2nc3c(c(SCC(=O)N(C)c4ccccc4)n2)Cc2c(CO)cnc(C)c2O3)cc1 | -11% | -17%
CCN(Cc1ccccc1)C(=O)c1cccc(S(=O)(=O)N2CCN(Cc3ccccc3)CC2)c1 | i | -9%
Cc1ccc(S(=O)(=O)N(C)C)cc1NC(=O)CN1CCN(Cc2ccccc2)CC1 | 1% | -7%
O=C(NCCc1ccccn1)/C(=C/c1ccco1)NC(=O)c1ccccc1 | i | -6%
CCCOc1ccccc1C(=O)N(Cc1ccco1)C1CCS(=O)(=O)C1 (configuration not stated) | i | 0%
CCCCCn1c(NCc2ccc(OC)cc2)nc2ccccc21 | -26% | ?
O=C(Nc1ccccc1)N1CCCN(Cc2c(F)cccc2Cl)CC1 | -22% | -16%
Cc1ccc(S(=O)(=O)N(C)c2ccc(OCc3cccc(C)c3)cc2)cc1 | i | -7%
Cn1c2ccccc2c(=O)c2c(=O)n(-c3ccccc3)c(C3CCCCC3)nc21 | -12% | -13%
O=S(=O)(NC1CCCCC1)OCC(Cl)(Cl)Cl | -14% | -22%

canonical_smiles | VACV mCherry inh | VACV Venus inh
CN1CCC(=C(c2ccc(Cl)cc2)c2ccccn2)CC1 | -15% | -13%
Cc1ccc(SC[C@H](c2ccccc2)N2CCN(CCc3ccccc3)CCC2=O)cc1 | -18% | -5%
CC(C)Cn1c(SCC(=O)N2CCc3ccccc3C2)nc2cc(Cl)ccc2c1=O | -8% | -6%
C/C(=N\NC(=O)c1ccccc1)c1cccc(Br)c1 | -18% | -14%
CCc1ccc(CNC(=O)Cn2nc(C)c3c(C)n(-c4ccc(C)cc4)nc3c2=O)cc1 | -5% | -17%
CCOCCCn1c(=S)[nH]c2cc(C(=O)NC3CCCC(C)C3C)ccc2c1=O (configuration not stated) | 0% | -18%
Nc1c(C(=O)NCC2CCCO2)sc2nc3c(c(-c4ccco4)c12)CC/C3=C\c1ccco1 (configuration not stated) | -10% | 5%
O=C(Nc1cc(C(F)(F)F)ccc1N1CCOCC1)c1ccco1 | i | -8%
COCCNc1nc(Nc2ccc(F)cc2)c2sccc2n1 | -16% | -9%
Nc1nc(N)c2sc3nc4c(cc3c2n1)CCC4 | / | ?
O=c1[nH]c2cc3ccccc3cc2nc1-c1nnnn1Cc1ccccc1 | -2% | 21%
O=C(NCC(c1ccco1)S(=O)(=O)c1cccs1)c1ccc(C(F)(F)F)cc1 (configuration not stated) | -6% | -7%

canonical_smiles | VACV mCherry inh | VACV Venus inh
COc1ccccc1NC(=O)CNC(=O)CC12CC3CC(CC(C3)C1)C2 | -11% | -24%
Cc1[nH][nH]c(=O)c1C(c1c(C)[nH][nH]c1=O)c1cn(Cc2ccccc2Cl)c2ccccc12 | -2% | -12%
CCCCNC(=O)c1cc(-c2ccccc2)sc1N | -20% | -21%
COc1ccc(C(=O)N2CCC(C)(C(=O)O)C2)cc1OC (configuration not stated) | 34%[activator] | -3%
O=C(NCCc1ccccc1)C1CC(=O)N(C2CCCCCC2)C1 (configuration not stated) | -9% | -11%
O=C(CN1C(=O)CNC1=O)Nc1cccc(C(F)(F)F)c1 | -12% | 0%
CCOC(=O)C1(CC2CCCCO2)CCN(C(=O)NCc2ccccc2)CC1 (configuration not stated) | i | -6%
Cc1cccc2c(=O)cc(CSc3ccccc3NC(=O)c3cccc(Cl)c3)[nH]c12 | -9% | -11%
CCc1nc(N)c(C#N)c(-c2ccc(OC)c(OC)c2)c1C | -26% | -25%
O=C(OCC(=O)N1CCCc2ccccc21)c1c(F)cccc1F | -14% | -10%
Cn1cnc(S(=O)(=O)N2CCC(C(=O)Nc3ccc(C#N)cc3)CC2)c1 | -7% | -2%
COc1ccc(-n2c(SCc3ccc([N+](=O)[O-])cc3)nnc2-c2ccccc2)cc1 | -25% | -13%

canonical_smiles | VACV mCherry inh | VACV Venus inh
Cc1ccc(C)c2[nH]c(=O)c(CN(Cc3ccc4c(c3)OCO4)Cc3nnnn3Cc3ccco3)cc12 | / | -7%
COc1ccc(-c2noc(-c3ccc(N4CCN(c5ccccc5)CC4)c([N+](=O)[O-])c3)n2)cc1OC | -17%[7.34 µM] | -10%[7.34 µM]
Cc1ccc(NC(=O)CSc2ccccc2NC(=O)c2ccccc2)cc1Cl | -16% | -15%
CCCN(C)C[C@H]1Oc2ncc(Br)cc2C(=O)N([C@@H](C)CO)C[C@@H]1C | -22% | -3%
N#Cc1ccc[n+](CC(=O)c2ccc(Cl)cc2)c1 | -9% | 5%
CCOc1ccc(-c2nnc(SCC(=O)Nc3ccc(C)cc3Cl)o2)cc1 | ? | ?
CC(C)Oc1cc2oc(=O)c3c(c2cc1Cl)CCC3 | 2% | -2%
COc1ccc(/C=N/N=C2/NC(=O)C(c3ccccc3)(c3ccccc3)S2)cc1 | -10% | 4%
Cc1cc(C)c(-n2c(C)cc(/C=C3/NC(=O)NC3=O)c2C)c(C)c1 | -11% | ?
COc1ccc(C(=O)Nc2ccc(S(=O)(=O)Nc3cc(C)nc(C)n3)cc2)c(OC)c1 | -15% | ?
Cc1cc(/C=C(\C#N)C(=O)O)c(C)n1CC(C)C | i | 1%
CCN(CC(=O)NC1CCCC1)S(=O)(=O)c1ccc(C)cc1 | -14% | -6%

canonical_smiles | VACV mCherry inh | VACV Venus inh
Cc1ccc(Cn2c(=O)n(Cc3ccco3)c(=O)c3ccccc32)cc1 | / | -29%
CC(=O)CC(=O)Nc1ncc(C(F)(F)F)cc1Cl | i | -10%
O=C1CCCC2=C1C(c1ccccc1)CC(=O)N2c1ccccc1 (configuration not stated) | / | ?
C/C(=N\NC(=O)COc1ccc(C(C)(C)C)cc1)c1ccc(OC(F)F)cc1 | -7% | -7%
Cc1cc([N+](=O)[O-])nn1CCCC(=O)O | i | -15%
O=C(Nc1cccc(F)c1)c1c(F)c(F)c(F)c(F)c1F | ? | ?
Cc1ccc(N2C(=O)C(Cc3ccccc3)NC2=S)cc1 (configuration not stated) | -18% | -22%
C=CCn1c(SCC(=O)N2CCc3ccccc3C2)nc2sc(C)cc2c1=O | / | ?
CC(=O)NC(c1ccccc1)c1nc(-c2cccc(CO)c2)cs1 (configuration not stated) | -24% | ?
NNc1nc(Nc2ccccc2)nc(N2CCCCC2)n1 | i | -7%
O=C(Cn1ncc2c3ccccc3n(Cc3ccccc3)c2c1=O)NCc1ccccn1 | 5%[7.34 µM] | 8%[7.34 µM]
C[C@H]1NS(=O)(=O)c2cc(Cl)ccc2O[C@@H]1c1ccccc1 | -11% | -15%

# Complete entries as entered above.
# `CC(=O)NC(c1ccccc1)c1nc(-c2cccc(CO)c2)cs1` (configuration not stated) is listed as VACV mCherry inh: -24%; VACV Venus inh: ?
# `CC(=O)CC(=O)Nc1ncc(C(F)(F)F)cc1Cl` is listed as VACV mCherry inh: i; VACV Venus inh: -10%

# More compounds follow.
canonical_smiles | VACV mCherry inh | VACV Venus inh
CCCC(NC(=S)NCC1CCCO1)C12CC3CC(CC(C3)C1)C2 (configuration not stated) | i | -26%
OCCN1CCN(CC(O)COc2ccc(C34CC5CC(CC(C5)C3)C4)cc2)CC1 (configuration not stated) | -26% | ?
N#Cc1ccc(CN2C(=O)c3ccccc3Sc3ccc(C(=O)OCc4ccco4)cc32)cc1 | -16% | -1%
CC(=O)O[C@H]1CC[C@@]2(C)C(=CC[C@H]3[C@@H]4CC[C@H](C(C)=O)[C@@]4(C)CC[C@@H]32)C1 | i | -6%
CC1(C)CC(NC(=O)c2cccc3ccccc23)CC(C)(C)N1 | -9% | -9%
c1cc(CN2CCCCC2)cc(OCCCNc2nc3ccccc3s2)c1 | -10%&-3% | -27%&-24%
CSc1nnc(C2CCNCC2)n1C | -3% | -17%
O=C(/C(=C/O)N=Nc1ccc(Cl)cc1)c1ccncc1 | / | ?
Cc1ccc2ncc3c(-c4ccc(F)cc4)nn(-c4cccc(F)c4)c3c2c1 | ? | -23%
Cc1ccc(C(=O)NC2CCS(=O)(=O)C2)cc1S(=O)(=O)N1CCCCC1 (configuration not stated) | -27%[1.46 µM] | -9%
